Compound activity as filed in PubChem.
Vaccinia mCherry: inhibitors of vaccinia virus infection (mCherry reporter signal); Vaccinia virus mCherry reporter infection, fluorescence; about a quarter of the inactives have no number; Potency, µM (titrated, usually from 36.5 µM), for the others: at the highest dose activity change, negative = inhibition, most hits filed as inhibitors; hit rate 0.63% among 310,000; active = well fitted inhibition curve with a large enough effect; inconclusive = small, poorly fitted or top-dose-only effect; inactive = no such curve, though single readings can be large or run the other way; tested in A549 cells; further: nearly all actives have a fitted effect of over 35% in size; inactives centre near -10
Vaccinia Venus: inhibitors of vaccinia virus (Venus reporter); Vaccinia virus Venus reporter expression, fluorescence; Potency, µM (titrated, usually from 36.5 µM), inactives show at the top dose activity change, negative = inhibition, most hits filed as inhibitors; hit rate 0.46% among 330,000; AID 720580; active means well fitted inhibition curve with a large enough effect; inconclusive means small, poorly fitted or top-dose-only effect; inactive means no such curve, though single readings can be large or run the other way; tested in A549 cells; further: nearly all actives have a fitted effect of over 30% in size; inactives centre near -10
* = called active by the depositor; i = inactive; u = inconclusive; x = no result given; & = joins results of further samples; [ ] = dose if it differs, or a comment. On the % scale 0 is the no-effect control and ±100 the full control effect; potency means the concentration at half of the fitted maximal effect.

mol | Vaccinia mCherry | Vaccinia Venus
C/C=C/NNC(=O)Cc1ccc(OC)cc1 | 11.2µM* | 10µM*
O=C(CCc1ccc(S(=O)(=O)N2CCOCC2)cc1)N1CCN(Cc2ccc3c(c2)OCO3)CC1 | -16.6% | -18.6%
CCOc1ccc(NC(=O)CC(Cc2ccc(Cl)cc2)C(=O)O)cc1 (stereo not given) | -12.3% | -3.4%
NC1=NN(c2ccccc2)C(=O)C1 | u | -23.2%
Cc1ccc(C)c(C2(O)CC(C)N(C)CC2C)c1 (stereo not given) | x | u
CC(C)c1ccc(N(C(=O)c2ccco2)C(C(=O)NC2CCCC2)c2cccnc2)cc1 (stereo not given) | i | -13.4%
COc1cc2c(cc1OC)[C@@H](NC(=O)C(C)C)[C@H](OCc1ccccc1)C2 | i | 6.8%
Cc1c(C(=O)Nc2ccc(-c3nnc4n3CCCCC4)cc2)oc2c1ccc1ccccc12 | 14.1µM* | u
Cc1ccc(S(=O)(=O)Cn2nnnc2C(CC(C)C)N2CCC(C(N)=O)CC2)cc1 (stereo not given) | -9.6% | -12.3%
Cc1nnc(Cl)c2nn(-c3ccccc3F)c(C)c12 | -18.1% | -12.6%
CN(C1CCCCC1)S(=O)(=O)c1ccc2c(c1)c(=O)c(C(=O)O)cn2C | -28.9% | -1.7%
Cc1ccc(S(=O)(=O)N2CCC(C(=O)N3CCCC3C(=O)N[C@@H](CC(C)C)C(=O)NCC(N)=O)CC2)cc1 (stereo not given in full) | -9.1% | -6.3%
COc1cccc(-c2cc(C(=O)NCC3CCCO3)c3cc(C)cc(C)c3n2)c1 (stereo not given) | -7.5% | -21.2%
CCn1c(-c2cccnc2Cl)nc2cc(C)c(C)cc21 | i | -3.6%
CC(C)(C)NC(=O)COc1coc(CN2CCN(C(=O)c3ccco3)CC2)cc1=O | -15.3% | 2.3%
Cc1ccc(S(=O)(=O)N2CCOC2CNC(=O)C(=O)NCCc2ccc(S(N)(=O)=O)cc2)cc1 (stereo not given) | i | -8.2%
Cc1ccc(C(C[N+](=O)[O-])n2nc(C)cc2C)cc1 (stereo not given) | -12.2% | -8.8%
COc1ccccc1Cn1c(CO)nc2ccccc21 | i | -8.7%
COc1ccc(C(=O)NCCCn2nc(C)cc2C)cc1S(=O)(=O)N1CCOCC1 | -5.5% | -18.1%
NC1=NC[C@H](Cc2ccc(O)cc2)N1CCc1cccc(F)c1 | -1.4% | -2.9%
CCS(=O)(=O)NCC(c1ccco1)N1CCN(c2ccc(F)cc2)CC1 (stereo not given) | 0.4% | -10.4%&-12.9%
O=C(Cc1ccccc1)n1nc(-c2ccccc2)nc1NCc1ccco1 | -27.4% | -0.7%
O=C(c1cccc(F)c1)N1CCN(C(=O)c2nn3cccnc3c2Cl)CC1 | -12.0% | -11.8%
COCCN(C(=O)Nc1ccc(F)cc1F)c1nc2ccccc2s1 | -11.9% | -8.1%
CCC(=O)Nc1ccc2nc(SCCOc3cccc(C)c3)sc2c1 | -4.5% | -11.7%
CN(C)c1nc(N)nc(Cn2nnc(-c3ccc(C(F)(F)F)cc3)n2)n1 | -25.5% | -5.0%
Oc1ccccc1C=NC(c1ccccc1)C(O)c1ccccc1 (stereo not given) | i | -7.4%
O=C(NCc1ccccc1)C(=O)NCC1OCCN1S(=O)(=O)c1ccc([N+](=O)[O-])cc1 (stereo not given) | 10µM* | u
COc1ccc(CN2CCNC(=O)C2CC(=O)NCc2cn[nH]c2-c2ccccc2)c(F)c1 (stereo not given) | -24.3% | -6.0%
Cc1ccc(NC(=S)N(Cc2cccs2)Cc2cc3cc(C)ccc3[nH]c2=O)cc1 | i | -8.2%
Cc1ccc(S(=O)(=O)NCCC(=O)N2CCN(c3cccc(Cl)c3)CC2)cc1C | -13.9% | -23.8%
S=C1Nc2ccccc2Sc2ccccc21 | -9.5% | -7.9%
COC(=O)c1oc2ccccc2c1-n1cccc1 | -7.9% | -16.6%
Cc1ccccc1N=C1C(=O)Nc2ccccc21 | -17.2% | 4.0%
CC(=O)c1ccc(N2CCN(c3ccc(NC(=O)c4cccs4)cc3C(=O)O)CC2)cc1 | -3.2% | 13.7%
Cc1cc(CNC(=O)COc2ccc(C#N)cc2)c2ccccc2n1 | -14.5% | -5.0%
COc1ccccc1N1CCN(c2nc(-c3ccc(C)cc3)nc3ccccc23)CC1 | -14.4% | -15.8%
CC(C)CCn1c(=O)c(C(=O)Nc2ccccc2S(N)(=O)=O)c(O)c2ccccc21 | u | u
CCOC(=O)C(=CNCC(=O)OC)C(=O)OCC | x | -4.2%
O=C(CCNS(=O)(=O)c1cccs1)N1CCN(c2cccc(Cl)c2)CC1 | -4.5% | -13.8%
F[B-](F)(F)c1cc2ccccc2s1 | 14.1% | -9.8%
CC1(c2ccc(Cl)cc2Cl)OCC(Cn2ccnc2)O1 (stereo not given) | u | u
Cc1ccc(-c2cn3c(n2)sc2cc(C(=O)NC4CCCc5ccccc54)ccc23)cc1 (stereo not given) | -22.4% | -20.3%
COc1ccc(-c2nnc(SCC(=O)Nc3cccc(C(F)(F)F)c3)nc2-c2ccc(OC)cc2)cc1 | -16.3% | -17.1%
CCN(C(=O)COC(=O)c1oc2ccc(OC)cc2c1C)C1CCCCC1 | -16.1% | u
COc1ccc(N2CC(C(=O)OC(C)C(=O)c3ccccc3)CC2=O)cc1 (stereo not given) | i | -10.6%
CCc1nc2ccccc2c(=O)n1-c1ccccc1OC | 5.8% | -4.0%
CN(Cc1nc(-c2ccccc2)no1)C(=O)c1ccc2c(c1)OCO2 | -11.8% | -8.5%
CCc1cnc2c(c1SC(C(C)=O)C(=O)N(C)C)c(=O)n(C)c(=O)n2C (stereo not given) | -4.1% | -2.7%
Oc1c(CN2CCc3ccccc3C2)cc(Cl)c2cccnc12 | 2.51µM* | u

Remaining list, next part
mol | Vaccinia mCherry | Vaccinia Venus
Cc1cc(C)cc(NC(=O)CCN2C(=O)c3ccccc3S2(=O)=O)c1 | i | -6.8%
CN1CCN(C(=O)/C(=C\c2ccc3c(c2)OCO3)NC(=O)c2cccs2)CC1 | -1.8% | -5.9%
CCCNC(=O)c1ccc(CN2CCc3ccccc3C2)cc1 | x | -10.7%
CC(C)(C)C(=O)Nc1cc(NC(=O)C(C)(C)C)cc(C(=O)Nc2cc(C(=O)O)cc(C(=O)O)c2)c1 | -3.0% | -1.0%
CCOC(=O)c1ccc(NC(=S)N(CCN2CCCCCC2)Cc2ccco2)cc1 | -9.9% | -18.4%
Cc1cccn2c(=O)c(/C=C(\C#N)C(=O)NC3CCS(=O)(=O)C3)c(N3CC(C)OC(C)C3)nc12 (stereo not given) | -0.8%[7.34 µM] | -10.7%[7.34 µM]
O=[n+]1c2c(n([O-])c3cc(F)c(N4CCCC4)cc31)CCC2 | 7.5% | 124.3%[activator]
O=c1[nH]c2ccccc2cc1-c1nnn(-c2ccc(F)cc2)n1 | -19.6% | -15.8%
C[C@H](CO)N1C[C@H](C)[C@@H](CN(C)S(=O)(=O)c2cccs2)Oc2ccc(NC(=O)Cn3cnnn3)cc2C1=O | u | -2.2%
CC(C)C(=O)NC(C)C(c1cccs1)N1CCN(c2ccccc2)CC1 (stereo not given) | -13.2% | -5.9%
c1ccc(Cn2ccnc2-c2ccco2)cc1 | -27.6% | -26.1%
CCOC(=O)c1c(NC(=O)Cn2cc([N+](=O)[O-])cn2)sc2c1CCC2 | -2.5% | -4.1%
Nc1nc(-c2cccc(F)c2)cs1 | u | -23.6%
COc1cc(/C=N/NC(=O)c2cc[n+]([O-])cc2)ccc1O | -11.1% | 2.6%
O=C(Cn1c(-c2cccs2)cc2ccccc21)NCCc1ccc(Cl)cc1 | -11.0% | -3.5%
O=C(COC(=O)CCC(=O)c1cccs1)NCCc1ccccc1 | -10.7% | -4.4%
CC(C)NC(=O)N(C)C[C@H]1Oc2c(cccc2N(C)C)C(=O)N([C@H](C)CO)C[C@@H]1C | -18.9% | -7.4%
CCS(=O)(=O)N1CC(=O)N(c2cccc(Cl)c2)C(C)(C(=O)NC2CCCCCC2)C1 (stereo not given) | -20.2% | -14.5%
CCOC(=O)Nc1ccc2c(c1)N(C(=O)CN(CC)CC)c1ccccc1CC2 | i | -11.5%
CCOC(=O)c1cc(C(=O)NNC(=O)c2cccc([N+](=O)[O-])c2)c(C)nc1C | i | 2.6%
COC(=O)C1=C(N)Oc2cc(C)n(CC3CCCO3)c(=O)c2C1c1ccccc1OC (stereo not given) | x | -0.4%
Cc1ccc(C(=O)NCCC(C)C)cc1NC(=O)c1nsc2ccccc12 | -6.4% | -12.3%
Cc1ccc(S(=O)(=O)N2CCC(C(=O)NCCc3ccccn3)CC2)cc1 | -9.6% | 3.8%
COc1ccc(C2=NNC(c3cccs3)=Nc3ccc(OC)cc32)cc1 | x | -9.3%
COC(=O)c1sc2nc(SCc3cccc(F)c3)n(N)c(=O)c2c1C | -10.4% | -7.9%
CC(CNC(=O)CCS(=O)(=O)c1ccc2c(c1)oc(=O)n2C)c1ccccc1 (stereo not given) | 3.6% | -12.3%&5.0%
Brc1ccc2nc(-c3ccncc3)c(NC3CCCC3)n2c1 | -26.0% | -3.9%
CCCC(=O)Nc1ccc2c(c1)nc(CCNC(=O)c1ccco1)n2C | i | -10.8%
Cc1c(-c2ccccc2)[n+](=O)c2c(n1[O-])CCCC2 | 2.2%[7.34 µM] | -12.8%[7.34 µM]
COCc1[nH]nc2c1C(c1ccccc1OC)C(C#N)=C(N)O2 (stereo not given) | 12.1% | 8.7%
COC1C=CC23c4cc5c(cc4CN(CC2O)C3C1)OCO5 (stereo not given) | 1.26µM* | 1.78µM*
N#CC(C#N)=NNc1ccc(S(=O)(=O)N2CCCCC2)cc1 | i | -20.0%
O=C1OC[C@H](Cc2ccc3c(c2)OCO3)/C1=C\c1ccc2c(c1)OCO2 | i | -2.7%
Cc1ccc(C)c(N(C(=O)CNC(=O)c2ccco2)C(C(=O)NC2CCCCC2)c2ccncc2)c1 (stereo not given) | 5.1% | -12.4%
CCC(C)(C)NC(=O)C1CC(=O)N(CCc2ccc(F)cc2)C1 (stereo not given) | -18.5% | -8.3%
ClC(=Nc1cccc2ccccc12)N(c1ccccc1)c1ccccc1 | -4.5% | -9.6%
CCCS(=O)(=O)NC(=O)C1(C)CCCN(C(=O)CCc2cccs2)C1 (stereo not given) | 0.4% | 8.4%
O=C1c2cccnc2C(=O)N1Cc1ccc(S(=O)(=O)N2CCOc3ccc(Cl)cc32)cc1 | -2.8% | -21.0%
CCOC(=O)c1c(CN(C)C)n(-c2ccc(C)cc2)c2cc(Br)c(O)cc12 | u | u
Cc1ccc(NC2CCCN(C(=O)c3ccoc3C)C2)cc1C (stereo not given) | i | -11.6%
C/C(CC(=O)Nc1cc(C)ccn1)=N\NC(=O)c1ccccc1C | -5.6% | -2.2%
Cc1ccc(CC(=O)Nc2ncc([N+](=O)[O-])s2)cc1 | -26.2% | u
CCCn1c(C(C)Nc2nc(-c3ccc(C)cc3)cs2)nc2cc(Cl)c(N3CCCCC3)cc21 (stereo not given) | -23.7% | -19.0%
C=CCN(CC=C)C(=S)NC(=O)c1ccc(-c2ccccc2)cc1 | -23.7% | -17.4%
O=S(=O)(NC1CCCCC1)c1ccc(Br)cc1 | x | -10.8%
CCC(C)c1ccc(S(=O)(=O)N2CCN(C(C)CC(=O)O)CC2)cc1 (stereo not given) | i | 6.3%
CCOc1ccc(NC(=O)CSc2nc(-c3ccc(F)cc3)cc(C(F)(F)F)c2C#N)cc1 | -12.2% | -10.3%
CC1CN(C(=O)COC(=O)c2ccc(N(C)C)cc2)CC(C)O1 (stereo not given) | i | -13.8%
Cc1nc2nc[nH]n2c(=O)c1NS(=O)(=O)c1ccc([N+](=O)[O-])cc1 | -2.0% | -5.9%
O=C(Nc1ccccc1N1CCOCC1)c1ccc(S(=O)(=O)NCc2ccco2)cc1 | -15.1% | -6.4%

More compounds:
mol | Vaccinia mCherry | Vaccinia Venus
CC(=O)Nc1ccc(NC(=O)Oc2ccccc2)cc1 | -6.8% | -3.9%
OC(CN1CCN(c2cccc(Cl)c2)CC1)C(c1ccccc1)c1ccccc1 (stereo not given) | -1.8%&-23.0% | -7.5%&-11.8%
Cn1c(=O)c2c(ncn2CC(=O)Nc2ccc3c(c2)OCO3)n(C)c1=O | -1.8% | -9.0%
CCCC1/C(=N/O)CC(c2ccccc2)NC1c1ccccc1 (stereo not given) | -14.1% | 0.1%
O=C(CC[C@H]1O[C@@H](n2ccc(=O)[nH]c2=O)[C@H](O)[C@@H]1O)N[C@H](Cc1ccccc1)C(=O)NCCCc1ccccc1 | i | 2.2%
Oc1ccccc1-c1n[nH]c(-c2ccccc2O)n1 | 2.82µM* | 3.98µM*
CCOc1ccccc1NC(=O)CSc1nc(-c2cccs2)cc(C(F)(F)F)n1 | -21.9% | -19.2%
OCc1nn2c(c1Br)NC(c1ccccc1)CC2C(F)(F)F (stereo not given) | -16.5% | -8.3%
CCn1c(SCC(=O)NCc2ccc(C)cc2)nnc1-c1ccncc1 | -8.9% | 9.7%

Two entries from above, with values under each structure:
Values in the order – Vaccinia mCherry, Vaccinia Venus
- CCn1c(SCC(=O)NCc2ccc(C)cc2)nnc1-c1ccncc1
→ -8.9%, 9.7%
- CC(=O)Nc1ccc(NC(=O)Oc2ccccc2)cc1
→ -6.8%, -3.9%

Compounds as they come; any-hit rate near 0.82%.
